Assay outcomes as filed in PubChem BioAssay.
NPYLR7 agonist: agonists of mosquito NPYLR7 receptor, primary screen, cell-based, Aedes aegypti, calcium fluorescence, mosquito biting behavior; Aedes aegypti neuropeptide Y-like receptor 7 (NPYLR7); HEK293T NPYLR7/Galpha15, GCaMP6s calcium fluorescence; activation, % at 10 µM; 270,000 compounds, 0.15% hits; in the data active = activation above about 40%;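 note: 0% = vehicle and 100% = reference agonist at the receptor; some compounds past the cut are filed as inactive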
NPYLR7 agonist max-min: second read-out of NPYLR7 agonist, no call of its own (marks repeat the call); activation, %; measured here: Max-Min RFU normalised activation; some inactives read as strong as hits;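 span of the calcium signal over five minutes; 0% = vehicle and 100% = native peptide agonist; compound fluorescence can raise it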
Numbers without * were called inactive; & = joins results of further samples.

The line under a structure holds: NPYLR7 agonist max-min, NPYLR7 agonist
- CN1CCN(c2nc(N3CCc4ccccc43)ncc2F)CC1
→ -3, -5
- O=c1nc(SCc2ccncc2)c2c([nH]1)CCC2
→ -4, 1
- COc1cccc(CN2CCC2(C)C(=O)Nc2ccc(C)cc2)c1OC (stereo not given)
→ -6, -1
- C=C1CC[C@H](O)C/C1=C/C=C1\CCC[C@]2(C)[C@@H]([C@H](C)/C=C/[C@H](C)C(C)C)CC[C@@H]12
→ -7, -5
- CCCCN(CC(=O)N(Cc1ccccc1)Cc1cccn1Cc1ccc(F)cc1)C(=O)c1ccc(C(C)(C)C)cc1
→ 18, 3
- CCCCCCCCN=C(NC(=O)c1ccc(C)cc1)OCCOC
→ 9, -1
- N#Cc1c(N)sc2c1CCN(c1nc(CN3CCOCC3)nc3scc(-c4cccs4)c13)C2
→ 4, 6
- Cc1nc(CC(=O)OC(C)C(=O)Nc2ccc(C(F)(F)F)cc2)cs1 (stereo not given)
→ 6, 14
- CCCCC(=O)N(C)c1c(C)nc2ccc(C(=O)Nc3ccc4c(c3)OCC(=O)N4)cn12
→ -16, -10
- COc1ccc(CC2CCN(S(=O)(=O)c3ccc(C(C)=O)cc3)CC2)cc1
→ 5, 4
- CN=c1scc(-c2ccccc2Cl)n1/N=C\c1cccc(OC)c1O
→ 1, 1
- NCc1ccc(OCCOc2ccc(Cl)cc2)cc1
→ -11, -6
- CN(CC(=O)OC1CCCc2ccccc21)S(C)(=O)=O (stereo not given)
→ -2, -2
- NC1=NC2(CCCC2)N=C(Nc2ccc(Cl)cc2)N1
→ 8, 10
- CCc1nnc(NC(=O)CCc2c(C)nc3nc(SC)nn3c2C)s1
→ 46, 0

Reprinted from the part before: 3 entries, followed by the next part.
The line under a structure holds: NPYLR7 agonist max-min, NPYLR7 agonist
- CN(CC(=O)OC1CCCc2ccccc21)S(C)(=O)=O (stereo not given)
→ -2, -2
- NC1=NC2(CCCC2)N=C(Nc2ccc(Cl)cc2)N1
→ 8, 10
- CCc1nnc(NC(=O)CCc2c(C)nc3nc(SC)nn3c2C)s1
→ 46, 0
- CCCc1nc(N2CCN(C(=O)c3ccc([N+](=O)[O-])cc3Cl)CC2)c2c(C)nn(-c3ccc(F)cc3)c2n1
→ 5, 6
- COc1cc(NCc2cccnc2-n2ccnc2)ncn1
→ 2, 4
- COc1ccc(Oc2cc(N3CCN(C(=O)c4cccs4)C(C)C3)ncn2)cc1 (stereo not given)
→ -4, -9
- Nc1cc(-c2cccc(C(F)(F)F)c2)nn1-c1ccc(C(=O)N2CCC(O)(Cc3ccccc3)CC2)cc1
→ -17, -11
- Cc1ccc(COC(=O)CN(c2ccccc2C)S(C)(=O)=O)cc1
→ 6, 10
- CCOC(=O)C1=C(C)NC(C)=C(C(=O)OCC)C1c1cccnc1
→ -9, -7
- O=S(=O)(Nc1cccc(F)c1)c1cccc2nsnc12
→ -6, -3
- CCOC(=O)c1cc(-c2ccc(N3CCN(C(=O)c4c(F)cc(OC)cc4F)CC3)cc2)n(-c2ccccc2Cl)n1
→ -8, -11
- O=C(CCl)Nc1c(-c2ccc(C(F)(F)F)cc2)nc2ccccn12
→ -6, -6
- O=c1c2ccc(-c3n[nH]c(=S)n3Cc3ccccc3)cc2nc2n1CCCCC2
→ 3, 4
- CN1CCC(Cc2noc(CCN3CCCCO3)n2)CC1
→ 0, 1
- Cc1nc2c(oc3ccc(Br)cc32)c(=O)o1
→ -2, 1
- Cc1cc(C)c2c(n1)sc1c(N3CCN(c4ccccc4)CC3)ncnc12
→ 6, 3
- CC(C)Oc1cccc(Nc2nccc3c2cc(-c2cnn(C)c2)n3C)c1
→ -4, 7
- CCCNc1cc(=O)n(-c2ccccc2C)nc1C(=O)OCC
→ 8, 9
- COc1cccc(Cl)c1-c1cnc(-n2cnnc2)cc1C
→ -6, -1
- CC1(C)O[C@@H]2C[C@@](OCc3ccc(C#N)cc3)(C(=O)NCC3CC3)CC(OCc3c(F)cccc3F)[C@@H]2O1 (stereo not given in full)
→ 16, 9
- COCCn1cc(C(=O)N2CCCC(C)C2)c2nn(-c3ccccc3)c(=O)c-2c1 (stereo not given)
→ 6, 7
- O=C(O)c1coc(CN(CCc2c[nH]c3ccccc23)Cc2cccc(Oc3ccccc3)c2)n1
→ 10, 10
- COc1ccccc1-c1cc(CNC(=O)c2cc(C)nc(C)n2)on1
→ 12, 3
- Cc1nc(Cc2noc(CC3CC4CCC3C4)n2)no1 (stereo not given)
→ 2, 5
- Cc1ccc(N=Cc2c(Nc3ccccc3)nc3c(C)cccn3c2=O)cc1
→ 1, 1
- O=C(Nc1ccn[nH]1)c1cccc(S(=O)(=O)N2CCCc3ccccc32)c1
→ 1, -3
- Cc1c(C(=O)NCc2cccs2)cnc2c(-c3c(F)cccc3Cl)cnn12
→ 11, 8
- CC(=O)N1CCN(C(=O)c2nn(-c3cccc(F)c3)c(=O)n(Cc3cccc(C)c3)c2=O)CC1
→ 13, 9
- CCOc1ncccc1C(=O)NC1CCc2[nH]c3c(C)cc(Cl)cc3c2C1 (stereo not given)
→ -4, -2
- CCN(CC)CCN(C(=O)C1CCCCC1)c1nc2cc3c(cc2s1)OCO3
→ -6, -4
- O=C1c2ccc(-c3nc4ccccc4c(=O)o3)cc2C(=O)N1Cc1ccc(Cl)cc1
→ 6, 9
- CCc1nn(-c2ccccc2)c(Oc2ccccc2OC)c1CN(CC1CC1)CC(O)c1ccccc1 (stereo not given)
→ 6, 3
- CCn1cc(CN2CCC(CNC(=O)NC3CCCC3)C2)c(C)n1 (stereo not given)
→ -5, -4

Look-ups from above:
CCc1nnc(NC(=O)CCc2c(C)nc3nc(SC)nn3c2C)s1 in NPYLR7 agonist max-min → 46
CN1CCN(c2nc(N3CCc4ccccc43)ncc2F)CC1 in NPYLR7 agonist → -5
CCOC(=O)c1cc(-c2ccc(N3CCN(C(=O)c4c(F)cc(OC)cc4F)CC3)cc2)n(-c2ccccc2Cl)n1 in NPYLR7 agonist max-min → -8
CCCNc1cc(=O)n(-c2ccccc2C)nc1C(=O)OCC in NPYLR7 agonist max-min → 8
CCCCCCCCN=C(NC(=O)c1ccc(C)cc1)OCCOC in NPYLR7 agonist max-min → 9
CN1CCC(Cc2noc(CCN3CCCCO3)n2)CC1 in NPYLR7 agonist max-min → 0

The listing continues.
The line under a structure holds: NPYLR7 agonist max-min, NPYLR7 agonist
- O=C(Nc1cccc(C(F)(F)F)c1)c1cnn2c(C(F)(F)F)cc(-c3ccc(Br)cc3)nc12
→ 9, 6
- Cc1ccsc1CN(Cc1ccc2c(c1)OCO2)C(=O)CN(C(C)C)S(=O)(=O)c1ccc(Cl)cc1
→ -17, -7
- C#CCNc1cc(CS(C)(=O)=O)ccc1Cl
→ -6, 4
- CC1CCc2c(F)cccc2C1NC(=O)NCc1ccon1 (stereo not given)
→ -21&1, -25&3
- CS(=O)(=O)N1CCC(C(=O)N(Cc2cccnc2)c2nc3c(F)cccc3s2)CC1
→ -2, -1
- CC(C)(C)c1ccc2c(c1)CC(CNC(=O)c1ccccc1Br)O2 (stereo not given)
→ 0, -14
- O=C(c1ccc(-n2cnnc2)cc1)N1CCCC(OCc2ccccn2)C1 (stereo not given)
→ -3, -3
- Cc1cc(C)nc(NN=C2CC(=[N+]3CCCCC3)CC(C)(C)C2)n1
→ 9, 7
- Cc1ccc(CNC(=O)C2CC2(c2ccccc2)c2ccccc2)o1 (stereo not given)
→ 0, 4
- Cc1ccccc1SC1CCN(Cc2nc(-c3ccccc3)no2)CC1
→ 6, 13
- O=C(NC1CC1)c1cccnc1Sc1ccc(Cl)cc1
→ 26, 0
- CCCCN1COc2c(c3c(C(=O)OCC)c(C)oc3c3ccccc23)C1
→ -7, -2
- COc1ccc(OC)c2c1CN(c1cc(C)nc3ccccc13)CC2O (stereo not given)
→ 11, 4
- O=C(NC(c1ccc(-c2ccccc2)cc1)c1cnccn1)C1CCN(CCOc2ccccc2)CC1 (stereo not given)
→ 4, 0
- CC(CCC(=O)O)[C@H]1CCC2C3C(=O)C[C@@H]4CC(=O)CC[C@]4(C)C3CC(=O)[C@@]21C (stereo not given in full)
→ -4, -1

Shown as labelled records: part of the list above.
C#CCNc1cc(CS(C)(=O)=O)ccc1Cl
  NPYLR7 agonist max-min: -6	NPYLR7 agonist: 4

CS(=O)(=O)N1CCC(C(=O)N(Cc2cccnc2)c2nc3c(F)cccc3s2)CC1
  NPYLR7 agonist max-min: -2	NPYLR7 agonist: -1

Carrying on.
The line under a structure holds: NPYLR7 agonist max-min, NPYLR7 agonist
- CCOC(=O)N1CCN(C(=O)CSc2nc(=O)n3cc(C)ccc3n2)CC1
→ -2, 1
- COCCCNCc1cccn1Cc1cccc(F)c1
→ -17, -6
- O=C(c1ccc2c(c1)OCO2)N1CCCC(OCc2cccc(C(F)(F)F)c2)C1 (stereo not given)
→ 1, -3
- COC(=O)c1cc(NC(=O)c2ccc(C)o2)cc(C(=O)OC)c1
→ -7, -4
- CCCCCc1ccc(C(=O)Nc2ccc(-n3nc(OCC(C)C)nc3-c3ccc(Cl)c(Cl)c3)cc2)cc1
→ 30, 24
- Cc1ccc2nc(CN(C)C(=O)CCC(=O)NC3CCCCCC3)[nH]c2c1
→ -6, 2
- COc1ccc(C2=N/C(=C\C(Cl)=C\c3ccccc3)C(=O)O2)cc1[N+](=O)[O-]
→ -5, -1
- O=C(CCN(Cc1ccccc1)c1nc(Cc2ccccc2)ns1)N1CCN(c2cccc(Cl)c2)CC1
→ 11, 13
- CNC(=O)c1cnc(/C=C/c2ccc(Oc3cnccn3)cc2)s1
→ 0, 4
- Cc1ccc(NC(C)(C(=O)NCC(=O)NC(C)C)c2ccccc2)cc1 (stereo not given)
→ -8, -7
- O=C(CC1CCCC1)NCCn1nc(-c2ccc(F)cc2)ccc1=O
→ -3, -4
- C/C(=N\Nc1nc(-c2ccccc2)c2cc(Cl)ccc2n1)c1ccc(Br)cc1
→ -6, 20
- CCOc1cc(S(=O)(=O)NCc2ccc3c(c2)OCO3)c(C)cc1C
→ 4, 5
- CCCc1n[nH]c(=S)n1CC(=O)NCc1c(C)cc(C)cc1C
→ -1, 1
- CN(Cc1nc2cc(C(F)(F)F)ccc2c(=O)[nH]1)c1ccccc1
→ 8, 8
- OC[C@H]1O[C@@H](c2nc(-c3nc(-c4cccs4)no3)cs2)C[C@@H]1O
→ -1, 2
- O=c1[nH]nc(-c2ccco2)c2sc(N3CCCC3)nc12
→ -5, -4
- COCC(=O)Nc1cnn(-c2ccc(C(=O)NCCc3ccccc3OC)cc2)c1
→ -3, -1
- CCc1nc2c(OCCC3CCCCC3)cccn2c1N(C)C(C)=O
→ 4, 15
- CCCCCNC(=O)c1ccc(-n2nc(-c3cccc(Cl)c3)cc2N)cc1
→ -5, 2
- CC(C)(C)c1ccc2c(c1)CCN2C(=O)c1ccc(=O)[nH]n1
→ 10, 18
- COc1ccc(C(=O)Nc2c3c(nn2-c2cccc(C)c2C)CS(=O)C3)cc1 (stereo not given)
→ 3, 6
- CC(NC(=O)CC(C)(C(=O)O)c1ccccc1)c1ccc(F)c(F)c1 (stereo not given)
→ 4, 4
- COCc1cc(C(=O)N2CC[C@@H](c3sccc3C)[C@H](O)C2)ccc1OC
→ -4, -1
- Cc1cccc(-c2n[nH]c(=S)n2CC(=O)N(C)C(C)c2ccccc2)c1 (stereo not given)
→ -1, -8
- CCOC(=O)/C=C(\C)N1N=C2c3cc(OC)ccc3CCC2C1c1ccc(OC)cc1 (stereo not given)
→ 3, 3
- Cc1ccc(C(=O)Nc2cccc(/C=N\n3c(C)nnc3C)c2)cc1
→ 2, 5
- COc1cccc(NC(=O)Nc2ccc(-n3nc(OCc4ccc(F)cc4)nc3-c3ccccc3F)cc2)c1
→ -4, 11
- c1ccc(CNCC2CC(c3ccccc3)=NO2)cc1 (stereo not given)
→ -7, -2
- C/C(=C\c1ccco1)CN(Cc1ccccn1)CC1CCCO1 (stereo not given)
→ 5, 5
- Cc1ccc(NC(=O)CN(Cc2ccco2)C2CCS(=O)(=O)C2)cc1I (stereo not given)
→ 11, 11
- COc1cc(C)c(NC(=O)CN2C(=O)NC3(CCCC3)C2=O)cc1OC
→ 1, 3
- O=C(NCC1CCN(Cc2cccnc2)C1)Nc1ccccc1Cl (stereo not given)
→ 2, 3
- CC1=C(C(=O)OCCOc2ccccc2)C(c2ccccc2[N+](=O)[O-])NC(=O)N1C (stereo not given)
→ 1, 2
- O=C(c1ccccc1N1CCCCC1)N1CCCC2(CCc3ccccc32)C1 (stereo not given)
→ 6, 7
- Cc1cc(=O)[nH]c(-n2nc(C3CC3)cc2NC(=O)c2ccccc2F)n1
→ -2, -2
- CCCC(NC(=O)c1occc1C)c1nccn1C (stereo not given)
→ -3, -1
- O=C(c1ccc(Oc2ccccc2)cc1)C1CCCN(C(=O)CN2CCOC2=O)C1 (stereo not given)
→ 0, 0
- CCN1CCN(C(=O)c2ccc(CSc3nnc(-c4ccccc4Cl)n3-c3ccc(F)cc3)cc2)CC1
→ 8, -6
- CCOC(=O)c1c(NC(=O)c2ccc(F)cc2)sc(C(=O)Nc2ccccc2F)c1C
→ 6, 4
- Cc1nc(-c2ccccc2)nc(N2CCN(C(=O)C3CCC3)CC2)c1Cc1c(F)cccc1Cl
→ 1, 0
- COCC1CCCN(Cc2c(C(=O)N(C)Cc3ccccc3)nc3ccccn23)C1 (stereo not given)
→ 3, 0
- O=C(COc1ccc(Cl)cc1Cl)Nn1cnc2c(cnn2-c2ccccc2)c1=O
→ 3, 4
- CCSc1nnc(NC(=O)CN2CCSC2=O)s1
→ 10, 6
- CN(Cc1cnccn1)C(=O)c1ccc2oc(-c3ccc(C(F)(F)F)cc3)nc2c1
→ 2, 5
- Cc1nc2sccn2c1CN1CCC(N2CCCC2=O)CC1
→ -6, -2

The list is partial, so the mix of outcomes need not match the whole.
